Screening data as filed in PubChem.
GIV-Gai inh = inhibitors of GIV peptide binding to Galpha-i3, primary screen, biochemical, fluorescence polarization, FITC-GIV GBA peptide, rat Galphai3 | actives 0.42% (n = 210,000) | AID 1224905, 2016 | percent of control (FP), % (concentration not given with the values) | 90 min; hits give low values; scaled: aluminum fluoride 0%, vehicle 100% | Guanine nucleotide-binding protein G(i) subunit alpha-3 (Rattus norvegicus), P08753;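 active = replicate mean at 85% of control or lower, very high polarization wells dropped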;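 note: wells of about 15 µL received 100 nL stock; the first replicate is given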
Target sequence (P08753 whole entry, looked up): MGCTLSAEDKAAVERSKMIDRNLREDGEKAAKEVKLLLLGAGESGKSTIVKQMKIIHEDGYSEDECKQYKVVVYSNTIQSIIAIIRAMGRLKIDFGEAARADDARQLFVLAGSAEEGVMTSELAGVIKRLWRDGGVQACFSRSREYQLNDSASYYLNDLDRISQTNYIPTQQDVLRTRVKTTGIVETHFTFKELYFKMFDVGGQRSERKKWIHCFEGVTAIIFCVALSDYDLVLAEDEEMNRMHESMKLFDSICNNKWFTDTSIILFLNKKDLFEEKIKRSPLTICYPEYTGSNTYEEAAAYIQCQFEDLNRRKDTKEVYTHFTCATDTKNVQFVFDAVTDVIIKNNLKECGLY
* marks the source's active call; other numbers are inactive results. Not all compounds are listed, so the mix of outcomes need not match the whole.

For Cc1cccc(-n2c(-c3ccc(Br)cc3)cn3c4c(=O)n(C)c(=O)n(C)c4nc23)c1 the results were GIV-Gai inh 114.
CCOC(=O)C1=C(O)/C(=C/c2ccc(Cl)cc2)SC1=Nc1cccc2ccccc12 was read as GIV-Gai inh 106.
For COc1ccc(CCn2c(-c3ccc([N+](=O)[O-])cc3)csc2=Nc2cccc(C(F)(F)F)c2)cc1OC the results were GIV-Gai inh 105.
For CCOC(=O)/C(C(=O)Nc1ccc(Br)cc1)=C1/NC(C)(C)Cc2ccccc21 the results were GIV-Gai inh 104.
`CCn1cc(CN2CCCC2c2cc(C(C)C)on2)c2cc(OC)ccc21` (stereo not drawn) gave GIV-Gai inh 112.
`COc1cc(C(=O)N/N=C/c2cn(-c3ccccc3)nc2-c2ccccc2)cc(OC)c1OC` gave GIV-Gai inh 102.
Screening Cc1ccc(-c2csc3c(=O)n(C(C)C)cnc23)cc1 returned GIV-Gai inh 104.
`CCOC(=O)C1=NN(c2ccccc2)C2C(=O)N(c3ccccc3)C(=O)C12` (stereo not drawn) gave GIV-Gai inh 109.
Screening CCOC(=O)c1cc(-c2ccccc2)n(CC(=O)NCC2COc3ccccc3O2)c1C (stereo not drawn) returned GIV-Gai inh 111.
`CC(=O)c1c(C)cc(C)c(CSc2nnc(-c3ccco3)n2-c2ccccc2)c1C` gave GIV-Gai inh 99.
`COc1ccc(CNC(=O)c2cccc(Oc3cc(-c4cccc(F)c4)ncn3)c2)c(OC)c1` gave GIV-Gai inh 100.
Screening Cc1ccc(C2(O)CN(c3cccc(C)c3C)C3=[N+]2CCCS3)cc1 (stereo not drawn) returned GIV-Gai inh 108.
For O=C(/C=C/c1cccc(Cl)c1)Oc1ccccc1NC1=NS(=O)(=O)c2ccccc21 the results were GIV-Gai inh 104.
For O=C(Cn1c(=O)c2cccnc2n(-c2ccccc2)c1=O)Nc1ccc(F)cc1F the results were GIV-Gai inh 105.
`O=C1C2ON(c3ccc(Cl)cc3)C(c3ccc(C(F)(F)F)cc3)C2C(=O)N1Cc1ccccc1` (stereo not drawn) gave GIV-Gai inh 124.
`Cc1ccc(-c2cc(C(F)(F)F)n3nc(C(=O)NCc4ccc5c(c4)OCO5)nc3n2)cc1` gave GIV-Gai inh 102.
Screening NC(=O)C1(N2CCCCC2)CCN(C(=O)CCNC(=O)Cn2cnc3sc4c(c3c2=O)CCCC4)CC1 returned GIV-Gai inh 107.
`CCOCCOC(=O)C1=C(C)NC2=C(C(=O)CC(c3cccs3)C2)C1c1ccc(OC)c(O)c1` (stereo not drawn) gave GIV-Gai inh 104.
Screening CCOc1ccc2c(c1)C(=C1SC(C(=O)OC)=C(C(=O)OC)S1)C(=S)C(C)(C)N2C(=O)/C=C/c1ccc(OC)cc1 returned GIV-Gai inh 110.
Screening COc1ccc(NC(=O)c2ccc3c(=O)n(-c4ccc(OC)c(OC)c4)c(=S)[nH]c3c2)c(OC)c1 returned GIV-Gai inh 113.
CCCN1CCN(C(=O)c2sc3ncnc(N4CCN(c5ccccc5)CC4)c3c2C)CC1 was read as GIV-Gai inh 105.
Screening CCOC(=O)c1c(NC(=O)CSc2nnc(CNC(=O)COc3ccccc3)n2C)sc2c1CCCCC2 returned GIV-Gai inh 111.
O=C(CN1C2=NCCCN2c2ccccc21)c1ccccc1 was read as GIV-Gai inh 130.
CCc1ccc(CN2CCn3c(C)nnc3C2)o1 was read as GIV-Gai inh 94.
`O=C1c2ccccc2-c2onc3ccc(Nc4ccc(Cl)cc4)c1c23` gave GIV-Gai inh 120.
Cc1cc(-n2c(N)c(C(N)=O)sc2=S)ccc1Cl was read as GIV-Gai inh 100.
`COc1ccc(OCC(=O)N2CCN(C(=O)c3cc4cc(Br)ccc4[nH]3)CC2)cc1` gave GIV-Gai inh 109.
CN1CCC(OCCCNc2nc(C3CC3)nc3c2CCC3)CC1 was read as GIV-Gai inh 97.
Cc1cc[n+](C2C(c3ccc(Br)cc3)C(C#N)=C([S-])NC2(O)C2CC2)cc1 (stereo not drawn) was read as GIV-Gai inh 125.
For COc1cccc(NC(=O)CCS(=O)(=O)c2ccc3c(c2)NC(=O)CCS3)c1 the results were GIV-Gai inh 104.

12 consecutive compounds from above, quoted:
For Cc1cccc(-n2c(-c3ccc(Br)cc3)cn3c4c(=O)n(C)c(=O)n(C)c4nc23)c1 the results were GIV-Gai inh 114.
CCOC(=O)C1=C(O)/C(=C/c2ccc(Cl)cc2)SC1=Nc1cccc2ccccc12 was read as GIV-Gai inh 106.
For COc1ccc(CCn2c(-c3ccc([N+](=O)[O-])cc3)csc2=Nc2cccc(C(F)(F)F)c2)cc1OC the results were GIV-Gai inh 105.
For CCOC(=O)/C(C(=O)Nc1ccc(Br)cc1)=C1/NC(C)(C)Cc2ccccc21 the results were GIV-Gai inh 104.
`CCn1cc(CN2CCCC2c2cc(C(C)C)on2)c2cc(OC)ccc21` (stereo not drawn) gave GIV-Gai inh 112.
`COc1cc(C(=O)N/N=C/c2cn(-c3ccccc3)nc2-c2ccccc2)cc(OC)c1OC` gave GIV-Gai inh 102.
Screening Cc1ccc(-c2csc3c(=O)n(C(C)C)cnc23)cc1 returned GIV-Gai inh 104.
`CCOC(=O)C1=NN(c2ccccc2)C2C(=O)N(c3ccccc3)C(=O)C12` (stereo not drawn) gave GIV-Gai inh 109.
Screening CCOC(=O)c1cc(-c2ccccc2)n(CC(=O)NCC2COc3ccccc3O2)c1C (stereo not drawn) returned GIV-Gai inh 111.
`CC(=O)c1c(C)cc(C)c(CSc2nnc(-c3ccco3)n2-c2ccccc2)c1C` gave GIV-Gai inh 99.
`COc1ccc(CNC(=O)c2cccc(Oc3cc(-c4cccc(F)c4)ncn3)c2)c(OC)c1` gave GIV-Gai inh 100.
Screening Cc1ccc(C2(O)CN(c3cccc(C)c3C)C3=[N+]2CCCS3)cc1 (stereo not drawn) returned GIV-Gai inh 108.

Continuation.
`C=CCNc1nc(Cl)nc(Nc2ccc(OC)cc2OC)n1` gave GIV-Gai inh 108.
For COc1cc(C(=O)Nc2c3c(nn2-c2ccc(C)cc2C)CS(=O)(=O)C3)cc(OC)c1OC the results were GIV-Gai inh 104.
CCOC(=O)C1C(=O)NC(SCC(=O)Nc2nccs2)=C(C#N)C1c1ccccc1OCC (stereo not drawn) was read as GIV-Gai inh 113.
CCc1ccc(-c2ccc(-n3nc(C)c(S(=O)(=O)N4CCCC4)c3C)nn2)cc1 was read as GIV-Gai inh 104.
Screening CCC(=O)n1cc(/C=c2/sc3nc4cc(C)c(C)cc4n3c2=O)c(-c2ccc(F)cc2)n1 returned GIV-Gai inh 104.
Screening Cc1nnc2n1CCN(Cc1csc3c1CCCC3)C2 returned GIV-Gai inh 101.
CN1CCN(CC(=O)N2c3ccccc3CCc3ccccc32)CC1 was read as GIV-Gai inh 105.
Screening CC1(C)CC(=O)C2=C(C1)c1c(ccc3ccccc13)NC2c1ccc(N2CCC(Cc3ccccc3)CC2)c([N+](=O)[O-])c1 (stereo not drawn) returned GIV-Gai inh 106.
For COC(=O)c1cccc(-c2ccc(/C=C3\C(=O)N(c4ccc(S(N)(=O)=O)cc4)N=C3C(F)(F)F)o2)c1 the results were GIV-Gai inh 106.
`CCS(=O)(=O)N1CCCC(c2nc(CNC(=O)C(C)C)cs2)C1` (stereo not drawn) gave GIV-Gai inh 98.
O=S(=O)(c1cc(-c2nnc(C3CC3)o2)cs1)N1CCN(c2ccccc2)CC1 was read as GIV-Gai inh 99.
For CCn1cc(SCC(=O)N2N=C(c3cccs3)CC2c2cccc(OC)c2OC)c2ccccc21 (stereo not drawn) the results were GIV-Gai inh 107.
CCOC(=O)c1c(NC(=O)C(C)Sc2nnc(CNC(=O)c3c(F)cccc3Cl)n2C)sc2c1CCC2 (stereo not drawn) was read as GIV-Gai inh 110.
CCN(CC)c1ccc(NC(=O)CN2CCCN(Cc3cc(C)ccc3C)S2(=O)=O)c(C)c1 was read as GIV-Gai inh 101.
For NC(=O)C1CCN(c2nc(Nc3ccccc3)nc(Nc3ccccc3)n2)CC1 the results were GIV-Gai inh 109.
O=C(NCc1ccc(F)cc1Cl)c1nnc2ccc(-c3ccccc3)nn12 was read as GIV-Gai inh 101.
For O=C(NCCC1=CCCCC1)c1nc(-n2cnnc2)ccc1Br the results were GIV-Gai inh 107.
Screening COc1cccc(C(=O)NC(c2ccc(OC)c(OC)c2)c2cc(Cl)c3cccnc3c2O)c1 (stereo not drawn) returned GIV-Gai inh 108.
`CCOC(=O)c1ccc2nc(NC(=O)COC(=O)c3ccc(N4C(=O)CCC4=O)cc3)sc2c1` gave GIV-Gai inh 108.
Cc1ccc(CNS(=O)(=O)c2cc(-c3nc(C(C)(C)C)cs3)cs2)o1 was read as GIV-Gai inh 107.
`CCN(Cc1ccccc1)C(=O)c1cc(NC(=O)C(C)C)cnc1N1CCNCC1` gave GIV-Gai inh 98.
Cc1ccc(Cl)cc1NC(=O)NCc1ccnc(N2CCCCC2)c1 was read as GIV-Gai inh 105.
For CCOc1ccc2nc(-n3nc(C)c4c3NC(=O)CC4c3cn(CC)nc3C)sc2c1 (stereo not drawn) the results were GIV-Gai inh 99.
COc1ccc(S(=O)(=O)N2CCn3cccc3C2c2ccc(F)c(F)c2)cc1OC (stereo not drawn) was read as GIV-Gai inh 103.
`O=C(Nc1cc(Cl)ccc1Oc1ccc(Br)c2ccccc12)c1cc(I)cc(I)c1O` gave GIV-Gai inh 112.
Screening O=C1Nc2ccccc2C12OCC1(CO2)CC2C=CC1C2 (stereo not drawn) returned GIV-Gai inh 108.
`CC1(C)CC(=O)C2=C(C1)c1c(ccc3ncccc13)NC2c1ccc(F)cc1` (stereo not drawn) gave GIV-Gai inh 113.
CCC(C)NC(=O)Cn1cnc2nc(N3CCCC(C(=O)NC)C3)sc2c1=O (stereo not drawn) was read as GIV-Gai inh 104.
`Cc1cc(O)ccc1NC(=O)c1cccc(-n2cnnc2)n1` gave GIV-Gai inh 104.
Screening Cc1cc2c(cc1C)NC1(CCCCCC1)C(=NCc1ccccc1C)N2 returned GIV-Gai inh 97.
For COc1ccc(/C=C2\N=C(c3cc(Br)ccc3OC)OC2=O)c(OC)c1 the results were GIV-Gai inh 117.
Screening N#CC(C#N)=C1c2cc(S(=O)(=O)NCc3ccccc3)cc([N+](=O)[O-])c2-c2c1cc(S(=O)(=O)NCc1ccccc1)cc2[N+](=O)[O-] returned GIV-Gai inh 103.
For O=C(CSc1nnc2c3ccccc3nc(-c3ccccc3)n12)NC1CCCC1 the results were GIV-Gai inh 99.
`COc1ccc(-c2nc(-c3cccc(OC)c3)c(-c3cccc(OC)c3)[nH]2)cc1` gave GIV-Gai inh 108.
`COc1ccc(Cn2nc3c(S(=O)(=O)N4CCCCC4)cccn3c2=O)cc1` gave GIV-Gai inh 104.
Cc1ccc(-n2c(N)c(C(=O)Nc3ccccc3F)sc2=S)cc1C was read as GIV-Gai inh 109.
Screening CCC(C)NC(=O)CSc1nc(NCCc2ccccc2)c2ccccc2n1 (stereo not drawn) returned GIV-Gai inh 116.
`Cc1ccc(NC(=O)c2sc3ncnc(N4CCOCC4)c3c2C)cc1` gave GIV-Gai inh 98.
For COc1cccc(N2C(=O)C(N3C(=O)c4ccccc4C3=O)C2c2cc(OC)c(OC)c(OC)c2)c1 (stereo not drawn) the results were GIV-Gai inh 119.
Screening C=Cc1ccc(Cn2c(=O)c3cnc(-c4ccc(Cl)cc4)nc3n(CC)c2=O)cc1 returned GIV-Gai inh 101.
`CC(=O)N1N=C(c2cccc(Br)c2)OC1c1ccc(C)cc1` (stereo not drawn) gave GIV-Gai inh 101.
`COc1ccc(-c2nc(-c3ccccc3O)[nH]c2-c2ccc(OC)cc2)cc1` gave GIV-Gai inh 111.
CC1=CCC(C(=O)O)C(c2ccc(F)cc2)C1 (stereo not drawn) was read as GIV-Gai inh 102.
`Nc1cc(C2CCN(C(=O)C3CCC3)CC2)no1` gave GIV-Gai inh 98.
`CCOC(=O)c1[nH]c(C)c(CN(C(=O)Nc2cc(OC)ccc2OC)C2CCCCC2)c1C` gave GIV-Gai inh 98.
`C=CC(=O)N1c2ccccc2-c2c(ssc2=S)C1(C)C` gave GIV-Gai inh 121.
`CCNC(=O)C1=C(C)OCCS1` gave GIV-Gai inh 104.
COC(=O)c1c(C)n(CCOc2ccc(C(C)(C)c3ccccc3)cc2)c2ccc(O)cc12 was read as GIV-Gai inh 112.
Screening O=C1c2ccccc2Sc2cc(-c3noc(-c4cncc(Br)c4)n3)ccc2N1C1CCCC1 returned GIV-Gai inh 101.
`CCCCCOC(=O)CSc1nnc(-c2cc(OC)c(OC)c(OC)c2)o1` gave GIV-Gai inh 96.
Cc1cc2c(cc1C)NC1(CCCCCC1)C(=NCc1ccccc1F)N2 was read as GIV-Gai inh 100.
For Cc1cc(C2CCCN2C(=O)Nc2ccc3c(c2)OCO3)on1 (stereo not drawn) the results were GIV-Gai inh 109.
For Cc1nc(CCNC(=O)[C@H]2CSCN2S(=O)(=O)c2cnn(C(F)F)c2C)cs1 the results were GIV-Gai inh 103.
For Cc1csc(NC(=O)CSc2nc(=O)n(Cc3ccncc3)c3c2CCC3)n1 the results were GIV-Gai inh 98.
`O=C(CCc1nc(CSc2nc3ccccc3o2)no1)Nc1ccc(Cl)cc1F` gave GIV-Gai inh 103.
Screening CCOC(=O)c1sc2ncnc(Nc3ccc(Br)cc3C)c2c1C returned GIV-Gai inh 106.
N#CC1(C#N)[C@H](c2ccccc2F)[C@@H](C(=O)c2ccccc2)N2c3ccccc3C=C[C@@H]21 was read as GIV-Gai inh 107.
`Cc1c(C(=O)Nc2ccccn2)sc2ncnc(N3CCN(c4ccccc4F)CC3)c12` gave GIV-Gai inh 103.
N#CC1=C(N)C(C#N)(C#N)C(c2ccc(F)cc2F)C2CCCC=C12 (stereo not drawn) was read as GIV-Gai inh 108.
`Cc1csc(-c2cc(S(=O)(=O)N3CCCCCC3)c(C)n2C)n1` gave GIV-Gai inh 107.
Screening COc1ccc(C2(CNC(=O)/C=C/c3ccco3)CCCC2)cc1OC returned GIV-Gai inh 114.
